Six1-Eya2 blk: blocks human Six1 binding to Eya2; activity change, % (no concentration beside the values); AID 651725; 360,000 tested, 0.56% active; AlphaScreen GST-Six1/His-Eya2 binding, biochemical; stronger effect = lower value; control for the full effect not named in the record; in the data active = activity change below about -65%; inconclusive = about -30% to -65%; inactive = above about -30%; further: on the % scale 0 is the no-effect control and ±100 the full control effect; compound concentration not given in the record
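Six1/Eya2 binding was read as AlphaScreen signal after compounds were pinned into GST-Six1 plus His-tagged Eya2 (5X stock 250/500 nM) in pH 8.0 Tris/NaCl/TCEP buffer, beads added, then incubated 1 h, 37 C, dark.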
D2 agonist: agonists of human D2 dopamine receptor (beta-arrestin) | P14416 | DiscoveRx PathHunter D2 beta-arrestin, luminescence, 90 min; 100% = 57 uM dopamine signal | 360,000 tested, 0.084% active | activation, % (test concentration not listed); in the data active = activation above about 40%; inconclusive = about 15% to 40%; inactive = below about 15%; further: compound concentration not given in the record; the text of the record calls up to 30% inactive
Target sequence (P14416 whole entry, looked up): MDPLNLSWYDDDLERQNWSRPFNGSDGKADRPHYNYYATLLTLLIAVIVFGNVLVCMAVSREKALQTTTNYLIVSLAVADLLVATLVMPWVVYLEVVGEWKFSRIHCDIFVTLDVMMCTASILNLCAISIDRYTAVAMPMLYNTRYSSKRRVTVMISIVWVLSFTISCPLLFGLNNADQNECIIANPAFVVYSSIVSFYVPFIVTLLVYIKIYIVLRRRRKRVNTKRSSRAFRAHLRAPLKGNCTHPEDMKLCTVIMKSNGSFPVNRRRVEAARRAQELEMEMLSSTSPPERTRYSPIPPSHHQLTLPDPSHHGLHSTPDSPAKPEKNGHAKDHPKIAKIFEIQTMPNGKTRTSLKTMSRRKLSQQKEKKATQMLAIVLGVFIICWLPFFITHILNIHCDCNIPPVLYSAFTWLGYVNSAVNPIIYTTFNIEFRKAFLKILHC
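Agonist mode: compounds alone added to overnight-plated D2 PathHunter cells for 90 min at 37 C, with 57 uM final dopamine (EC100) defining full response. Beta-arrestin recruitment detected by chemiluminescent reagent, read after 1 h at ambient temperature.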
TRPML1 ag: human mucolipin-1 channel agonism; Q9GZU1; TRPML1-expressing cells, Ca2+ dye fluorescence, FDSS; host cell line not named in the record; reference of the full effect not given here; activation, % (no concentration beside the values); 410,000 tested, 0.12% active; AID 624414; in the data active = activation above about 50%; inconclusive = about 30% to 50%; inactive = below about 30%; further: 0% is about no effect; the text of the record puts the active cut at 80%
Target sequence (Q9GZU1 whole entry, looked up): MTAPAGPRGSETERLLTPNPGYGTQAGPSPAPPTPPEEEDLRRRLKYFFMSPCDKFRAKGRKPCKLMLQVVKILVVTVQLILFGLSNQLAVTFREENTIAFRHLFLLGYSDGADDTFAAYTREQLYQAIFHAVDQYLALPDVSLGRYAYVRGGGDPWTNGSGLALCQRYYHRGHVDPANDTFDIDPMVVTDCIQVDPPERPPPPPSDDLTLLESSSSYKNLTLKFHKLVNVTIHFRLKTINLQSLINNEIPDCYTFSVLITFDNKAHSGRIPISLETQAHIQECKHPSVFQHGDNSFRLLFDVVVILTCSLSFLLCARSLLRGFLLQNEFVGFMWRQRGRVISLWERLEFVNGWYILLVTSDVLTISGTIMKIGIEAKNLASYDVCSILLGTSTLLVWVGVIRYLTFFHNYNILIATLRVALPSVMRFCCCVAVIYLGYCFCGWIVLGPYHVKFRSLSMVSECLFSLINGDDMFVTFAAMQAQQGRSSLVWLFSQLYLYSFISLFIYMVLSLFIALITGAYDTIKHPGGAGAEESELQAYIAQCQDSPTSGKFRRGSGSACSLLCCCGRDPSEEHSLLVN
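Tet-induced TRPML1-DL cells, 1,500 per well, cultured overnight, were loaded with a no-wash Ca2+ dye for 45–90 min. Calcium fluorescence was recorded on the FDSS for 110 s after compound addition, before the EC80 agonist (4 uM 54-4) was added.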
CtBP-E1A blk: inhibitors of CtBP/E1A interaction; activity change, % (concentration not given with the values); AID 651724; AlphaScreen GST-E1A/His-CtBP binding, 1536-well; stronger effect = lower value; control for the full effect not named in the record; 340,000 tested, 0.49% active; in the data active means activity change below about -65%; inconclusive means about -30% to -65%; inactive means above about -30%; further: on the % scale 0 is the no-effect control and ±100 the full control effect
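AlphaScreen with 125 nM GST-E1A and 125 nM His-CtBP (5X stocks) in Tris pH 8.0, 300 mM NaCl, BSA, Tween 20, TCEP. Compounds preincubated 2 h at 37 deg C, then glutathione donor/nickel acceptor beads added for 1 h at 37 deg C in dark.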
TRPML1 blocker: human mucolipin-1 channel inhibition | activity change, negative = inhibition, % (no concentration beside the values) | 390,000 tested, 0.02% active | Q9GZU1 | TRPML1-inducible cells, Ca2+ dye fluorescence, FDSS; stronger effect = lower value; inhibition of EC80 agonist-evoked calcium signal; in the data active means activity change below about -50%; inconclusive means about -30% to -50%; inactive means above about -30%;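 further: stimulus is agonist 54-4 at its EC80 concentration; on the % scale 0 is the no-effect control and ±100 the full control effect; compound concentration not given in the record; the text of the record puts the active cut at -80%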
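Tet-induced TRPML1-DL cells loaded with Ca8 no-wash calcium dye were read kinetically on FDSS. Compound addition was followed by EC80 agonist 54-4 (4 uM final); inhibition was read over 110 s.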
PINK1 modulator: PINK1 expression modulation; 410,000 tested, 0.2% active; Potency, µM (titrated, usually from 76.6 µM), for the others: at the highest dose activation (PINK1 increase), actives largely listed as activators; AID 624263; PINK1 immunofluorescence, high-content cytometry, 24 h; active = well fitted activation curve with a large enough effect; inconclusive = small, poorly fitted or top-dose-only effect; inactive = flat fitted curve, though single readings scatter; cell line not stated here;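 further: potency means the concentration at half of the fitted maximal effect; % of control where 0% means no effect; nearly all actives have a fitted effect of over 65% in size; a mitochondrial uncoupler was the plate control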
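Compound titrations (5 concentrations, 24 h) on a stable cell line; DMSO and CCCP controls. Endpoint: fixed-cell PINK1 immunofluorescence with mitochondrial, cell and nuclear markers, scanned by microplate cytometer.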
Starred values were filed as active, the others as inactive; u = inconclusive; x = not tested or not shown; & = joins results of further samples; [ ] = dose if it differs, or a comment. This is a random part of the collection; 1% or so of the library scored in one or more.

SMILES	Six1-Eya2 blk	D2 agonist	TRPML1 ag	CtBP-E1A blk	TRPML1 blocker	PINK1 modulator
COC(=O)[C@@]1(C)[C@H]2C(=O)N(C)C(=O)[C@H]2[C@H]2CN=C(SCc3ccc(Cl)cc3)N21	7.6	-1.2	-0.3	-23.0	-16.0	1.1%
Cc1ccccc1-c1nnc2c3ccccc3c(C)nn12	7.5	-1.9	-1.7	-4.4	-29.2	-3.0%
CNc1c(NC(=O)c2cc(OC)cc(OC)c2)c(=O)oc2ccccc12	x	x	0.2	x	-7.2	-0.9%
COc1ccc(NC(=O)CCc2c(C)nc3nc(CNC(=O)c4cccc(F)c4)nn3c2C)cc1OC	-7.8	7.9	0.3	-13.4	17.6	-1.0%
CSc1ccc(CCNC(=O)c2cc(C)nn2-c2ccccc2)cc1	4.9	0.9	1.5	x	-3.4	6.5%
O=C(COC(=O)c1ccccc1Nc1ccccc1)NCc1ccccc1	19.8	-2.9	1.2	5.5	10.8	u
COc1ccc(N(CC(=O)NCCc2cccc(C)c2)S(=O)(=O)c2c(C)nn(C)c2C)cc1	x	x	-1.2	x	-7.5	1.3%
NNC(=O)C(=O)/C=C1\NC2(CCCC2)Cc2ccccc21	-4.8	4.0	0.4	-2.4	12.7	-0.9%
Cc1ccc(C(=O)Nc2ccc(S(=O)(=O)N3CCCC3)cc2)o1	-1.9	-1.4	-0.2	-1.1	5.5	3.3%
COc1ccc(NC(=O)c2cccc(S(=O)(=O)N3CCc4ccccc43)c2)c(OC)c1	5.7	1.3	0.0	0.1	12.3	0.4%
COC(=O)[C@H](C)NC(=O)Nc1cc(Cl)ccc1C	2.7	-2.3	0.6	3.3	3.1	x
N#Cc1c(NC(=O)C2C3C=CC(C3)C2C(=O)O)sc2c1CCCCC2 (stereo unspecified)	-6.5	-4.0	0.6	2.8	-8.4	0.3%
Cc1cc(Nc2nnnn2-c2ccccc2)n(-c2ccccc2)n1	-1.5	-1.1	3.0	-0.2	24.3	-0.4%[38.3 µM]
O=C(OCc1nc2ccsc2c(=O)[nH]1)c1cc(Br)c(Br)s1	-6.1	-4.3	-0.7	0.9	-11.7	2.8%
CC[N+](C)(CC)CCC(c1ccccc1)C1CCCCC1 (stereo unspecified)	6.3	-2.6	0.1	8.2	3.8	-0.8%
COc1ccccc1/C(C)=N/NC(=S)NCc1ccccc1	-25.0	-1.2	0.0	-7.4	-21.7	4.9%
Cc1csc(=O)n1CCC(=O)O	11.2	-1.4	0.1	-0.7	11.5	-1.2%
Cc1ccc(C)c(CSc2nc(-c3ccccc3F)nc3c2Cc2c(CO)cnc(C)c2O3)c1	x	x	0.5	x	-22.3	-0.7%
CCC(C)[C@H](NC(=O)N1CC(=O)Nc2ccccc21)C(=O)N[C@@H](Cc1c[nH]c2ccccc12)C(=O)O (stereo partly specified)	-6.4	-6.0	x	-3.1	x	0.7%
O=C(O)CCC(=O)NNC(=O)c1cccc(Br)c1	9.1	-3.0	0.7	-1.7	-8.7	3.8%
Cc1ccc(S(=O)(=O)c2nnn3c2nc(Nc2ccc(C(C)C)cc2)c2sccc23)cc1C	x	x	0.4	x	-13.2	-0.4%
COCC1CCCCN1C(=O)c1ccc2oc(CCc3ccccc3)nc2c1 (stereo unspecified)	3.5	-0.7	1.1	-0.4	-1.9	-3.2%
COc1cc(OC)c(NC(=O)c2sc3nc4n(c(=O)c3c2C)CCCC4)cc1Cl	x	x	-0.5	x	16.0	4.2%
O=C(c1ccc(N2CCCC2)c([N+](=O)[O-])c1)N1CCN(S(=O)(=O)c2ccc(Cl)cc2)CC1	-29.4	-4.3	1.1	u	-18.1	-1.2%
Cc1ccc(OCC(=O)Nc2nnc(S(=O)(=O)N3CCCCCC3)s2)cc1	4.1	3.5	1.5&1.5	3.0	5.5&-2.4	2.8%&0.2%
O=C1N[C@@H](c2ccccc2)COC(=O)[C@H](Cc2ccc(F)cc2)C/C=C\C[C@H]1CC(=O)N(CCO)Cc1ccccc1	-0.4	-3.0	0.7	3.2	-7.1	3.1%
CN(C)CC(=O)N1c2ccccc2Sc2ccc(Cl)cc21	1.2	-7.1	0.6	-2.9	0.7	-0.2%
O=C(CNC(=O)c1ccc(S(=O)(=O)N2CCCC2)cc1)N/N=C/c1ccccc1	0.0	-0.8	-0.7	-0.5	-0.2	-0.7%
O=C(Nc1nnc(CCS(=O)(=O)c2ccc3ccccc3c2)s1)c1cccs1	8.7	-9.4	0.8	-11.7	6.8	5.9%
CCOc1ccccc1N(CC(=O)Nc1ccccc1C(=O)N1CCOCC1)S(C)(=O)=O	7.9	-1.6	-0.1	2.1	-5.9	1.6%

Record cards (already shown):
`O=C(CNC(=O)c1ccc(S(=O)(=O)N2CCCC2)cc1)N/N=C/c1ccccc1` is listed with Six1-Eya2 blk = 0.0; D2 agonist = -0.8; TRPML1 ag = -0.7; CtBP-E1A blk = -0.5; TRPML1 blocker = -0.2; PINK1 modulator = -0.7%
`COc1ccc(NC(=O)c2cccc(S(=O)(=O)N3CCc4ccccc43)c2)c(OC)c1` is listed with Six1-Eya2 blk = 5.7; D2 agonist = 1.3; TRPML1 ag = 0.0; CtBP-E1A blk = 0.1; TRPML1 blocker = 12.3; PINK1 modulator = 0.4%

Next section:
SMILES	Six1-Eya2 blk	D2 agonist	TRPML1 ag	CtBP-E1A blk	TRPML1 blocker	PINK1 modulator
CCCC1NC(=O)c2cccnc2-n2c1nc1ccc(Cl)cc1c2=O (stereo unspecified)	1.7	-0.9	-0.5	-3.2	-11.3	-2.3%
O=C(COC(=O)c1ccc2c(c1)OCCO2)Nc1cccc(S(=O)(=O)N2CCOCC2)c1	0.2	-4.0	4.5	x	17.1	-0.6%
COc1ccc(C)cc1NC(=O)Cn1c(=O)oc2cc(S(=O)(=O)N3CCCCC3)ccc21	x	x	-0.5	x	2.4	5.9%
CCOC(=O)c1ccc(N(C(=O)c2ccco2)C(C(=O)NC2CCCC2)c2ccncc2)cc1 (stereo unspecified)	19.6	3.1	2.0	2.4	19.2	2.4%
O=C(Nc1ccccc1-c1nnn(CC(=O)N2CCCc3ccccc32)n1)c1cccc(Cl)c1	-0.4	-2.7	-0.7	1.4	-1.8	-1.5%
CCOP(=O)(O)c1ccccc1OCCCCCOc1ccccc1P(=O)(O)OCC	1.1	-0.5	0.1	-14.7	-0.2	15.4%[38.3 µM]
O=S(=O)(NC1CC1)c1ccc(S(=O)(=O)N2CCCc3ccccc32)cc1	0.3	2.1	0.4	-0.9	-11.3	0.2%[38.3 µM]
Cc1cccc(C)c1NC(=O)Nc1ccccc1-n1ccnc1	4.8	-1.6	0.3	5.0	-4.7	-0.9%
NC(=O)c1ccc(=O)n(Cc2ccc(F)c(F)c2)c1	-2.8	-4.1	0.4	5.2	0.1	-3.6%
Cc1ccc([C@H]2C[C@H](O)[C@@H](n3cc(C4CC4)nn3)CN2C(=O)C2CCCCC2)cc1	0.6	-4.6	-0.6	5.6	3.3	-0.1%
O=C(Cc1ccc(Cl)cc1)Nc1ccc(S(=O)(=O)N2CCOCC2)cc1	2.5	-9.2	1.6	-16.0	-9.9	1.0%
c1ccc2nc3c(ccc4ccccc43)cc2c1	112.0	-3.6	2.5	-3.3	-4.0	4.2%
CCOC(=O)C1(CC2CCCCO2)CCN(Cc2cccnc2)CC1 (stereo unspecified)	4.1	-1.4	0.0	-12.9	-10.8	-0.4%
CCOc1ccc(C=NC23CN4CN(CN(C4)C2)C3)cc1	6.0	-0.4	0.6	-4.0	21.2	2.9%
COc1cc([N+](=O)[O-])c(OC)cc1SCc1n[nH]c(=S)n1-c1ccc(C)cc1	-20.4	-0.4	-0.1	-17.3	4.0	-1.5%
CC(=O)NC(c1ccc(F)c(F)c1)c1nc(-c2cnc3ccccc3c2)cs1 (stereo unspecified)	-6.3	u	0.2	2.6	x	-0.9%
Cc1ccccc1CN1c2ccccc2-c2nc(SCC(=O)c3ccc(Cl)cc3)ncc2S1(=O)=O	x	x	0.7	x	-4.3	1.5%
OC(CNCCC(c1ccccc1)c1ccccc1)COc1ccccc1 (stereo unspecified)	-0.3	-4.5	1.7	3.1	7.6	0.9%
O=C(CCc1nc(-c2ccccc2F)no1)NCCc1ccccc1Cl	-1.2	-0.8	3.5	-3.2	7.6	-0.6%
COc1ccccc1NC(=O)CN(c1ccc(C23CC4CC(CC(C4)C2)C3)cc1)S(C)(=O)=O	-10.6	5.0	1.5	-12.1	3.4	8.7%[38.3 µM]
CCc1nnc(NC(=O)CCC(=O)N2CCN(CCc3ccccc3)CC2)s1	8.1	-2.2	0.0	-1.2	6.9	-1.3%
COc1ccc(NC(C)=O)cc1NC(=O)CSc1nnc(-c2cccnc2)n1C	5.6	-1.0	0.2	6.0	22.4	-2.3%
COc1ccc(N2CCN(c3nc(NCCc4ccc(OC)c(OC)c4)nc(OC)n3)CC2)cc1	u	3.7	3.4	u	9.0	u
O=C(Nc1nnc(S(=O)(=O)N2CCCc3ccccc32)s1)c1ccccc1Br	x	x	4.3	x	20.7	0.7%
O=C(O)c1cccc(NN=C2c3ccccc3-c3ccccc32)c1	-14.6	-2.0	0.5	-6.9	23.8	-0.2%
COc1ccc([C@H]2CC(=O)C=C(/C=C/c3ccc(C(F)(F)F)cc3)C2)cc1	0.7	-2.5	-0.8	2.0	0.9	-0.2%
CCOc1ccc(N(Cc2ccccc2F)C2=NC3CS(=O)(=O)CC3S2)cc1 (stereo unspecified)	-0.3	-5.1	0.9	-2.5	22.3	0.0%
O=c1[nH]c2cc3c(cc2cc1CN(Cc1cccnc1)C(=S)NCc1ccco1)OCCO3	-6.9	3.8	2.2	-14.3	9.2	1.9%
C/C(=N\NC(=O)c1ccccc1N)c1ccc(NC(=O)Cc2ccccc2)cc1	-15.3	0.4	-0.1	3.2	1.2	-0.1%
Cc1cc(S(=O)(=O)N2CCOCC2)ccc1OCC(=O)Nc1ccccc1C(F)(F)F	-3.7	-1.0	0.9	-2.7	3.5	11.4%
O=C(NC1CCCCC1)C(c1ccccc1)N(C(=O)c1cccs1)c1ccc2c(c1)OCO2 (stereo unspecified)	17.2	-2.4	3.4	0.0	-14.4	15.6%[38.3 µM]
O=C(COC(=O)c1cc(Br)ccc1O)Nc1ccc2c(c1)OCCO2	-7.0	-2.2	3.8	-12.1	7.8	-0.1%
CN(C(=O)CNC(=O)c1ccc(Br)o1)C1CCCCC1	8.1	-2.1	-0.3	-1.2	-0.7	0.1%
O=C(NCCc1ccccn1)c1cc(C(=O)C2CCCCC2)c[nH]1	4.6	0.8	-0.8	2.4	7.5	1.9%
CC(NC(=O)c1ccccc1F)C(=O)O (stereo unspecified)	4.3	-1.2	0.2	10.2	-24.0	1.5%
Cc1ccsc1C(=O)N1CCC(N2CCC(C(=O)NCC3CCCO3)CC2)CC1 (stereo unspecified)	3.1	0.6	0.0	7.3	-10.5	0.1%

Source: PubChem
